Compound activity from PubChem.
D2 ag: agonists of human D2 dopamine receptor (beta-arrestin); P14416; DiscoveRx PathHunter D2 beta-arrestin, luminescence, 90 min; 100% = 57 uM dopamine signal; activation, % (no concentration beside the values); actives 0.084% (n = 360,000); in the data active = activation above about 40%; inconclusive = about 15% to 40%; inactive = below about 15%; note: compound concentration not given in the record; the text of the record calls up to 30% inactive
Target sequence (P14416 whole entry, looked up): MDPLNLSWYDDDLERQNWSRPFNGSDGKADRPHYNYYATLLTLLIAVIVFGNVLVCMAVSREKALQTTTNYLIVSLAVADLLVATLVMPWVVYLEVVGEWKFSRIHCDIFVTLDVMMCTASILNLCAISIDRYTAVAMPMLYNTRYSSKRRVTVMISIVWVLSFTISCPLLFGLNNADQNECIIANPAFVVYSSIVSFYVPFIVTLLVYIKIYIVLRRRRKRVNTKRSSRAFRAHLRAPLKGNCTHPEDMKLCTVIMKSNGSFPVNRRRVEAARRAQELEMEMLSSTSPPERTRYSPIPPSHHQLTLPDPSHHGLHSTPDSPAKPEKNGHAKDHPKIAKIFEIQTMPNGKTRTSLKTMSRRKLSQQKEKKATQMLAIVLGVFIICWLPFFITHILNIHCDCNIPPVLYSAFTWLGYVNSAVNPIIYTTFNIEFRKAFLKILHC
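DiscoveRx PathHunter D2 beta-arrestin cells (2,100/well) attached overnight, then compound-stimulated 90 min at 37 C in HBSS/10 mM HEPES/0.1% Tween-20 buffer; beta-galactosidase complementation read by luminescence after 1 h at ambient temperature. Dopamine 57 uM final (EC100) as control.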
Menin MLL FP FL: displaces fluorescein MLL peptide from human menin. Fluorescence polarization, fluorescein-MLL peptide displacement from menin. FP activity change, % at 61.4 µM. 290,000 tested, under 10 active; inconclusive = falling polarisation curve, or a change in total fluorescence; inactive = total fluorescence flat and polarisation flat or rising; no compound was filed as active; the % refers to the polarisation; negative = inhibition;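 note: % of control where 0% means no effect; inhibitors lower the polarisation; unlabelled MLL peptide was the positive control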
ClpP mod: qHTS Assay for Activators of ClpP | ATP-dependent Clp protease proteolytic subunit (Bacillus subtilis (strain 168)), P80244 | purified B. subtilis ClpP, FRET peptide cleavage, 20 min | Potency, µM (top dose mostly 57.5 µM), inactives show top-dose activity change, negative = active | actives 1.9% (n = 340,000) | AID 651965, 2013; active = well fitted falling curve with a large enough effect; inconclusive = small, poorly fitted or top-dose-only effect; inactive = no such curve, though single readings can be large or run the other way; note: potency is the fitted concentration of half-maximal effect; the source files actives as falling curves though it sought activators and does not explain the sign; nearly all actives have a fitted effect of over 65% in size; many hits overshoot -100%
Target sequence (P80244 whole entry, looked up): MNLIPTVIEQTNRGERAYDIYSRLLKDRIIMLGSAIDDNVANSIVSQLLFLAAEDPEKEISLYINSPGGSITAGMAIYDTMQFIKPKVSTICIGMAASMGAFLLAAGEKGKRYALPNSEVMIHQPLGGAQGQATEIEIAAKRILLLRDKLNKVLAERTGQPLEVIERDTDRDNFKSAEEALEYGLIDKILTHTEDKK
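ClpP 10 microg/mL final, pH 8 Tris/KCl buffer with BSA, glycerol, Tween-20; compound pinned in; FRET-FV substrate; RT 20 min; Ex320/Em430; ΔFRET vs ADEP 5.8 microM, DMSO, no enzyme.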
gsp ag: activates gsp, the McCune-Albright syndrome mutation; gsp mutant cells, cAMP HTRF, 30 min; control for the full effect not named in the record; Potency, µM (highest dose often 76.9 µM), for inactives: at the top dose activation (cAMP increase), hits mostly activators; actives 0.13% (n = 340,000); AID 624287; active = well fitted activation curve with a large enough effect; inconclusive = small, poorly fitted or top-dose-only effect, or another doubt; inactive = no such curve, though single readings can be large or run the other way; cell line not stated here;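 note: phosphodiesterase inhibitor Ro 20-1724 added with compounds to block cAMP breakdown; potency is the fitted concentration of half-maximal effect; nearly all actives have a fitted effect of over 60% in size; about a fifth of the inactives were tested at one dose only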
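Cells stably selected in G418 were plated at 2000/well, grown 16-24 hr, then given compounds in DMSO with the PDE inhibitor […] (300 uM solution added) for 30 min at 37C; cAMP was read by HTRF.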
PINK1 expr mod: changes PINK1 expression; PINK1 immunofluorescence, high-content cytometry, 24 h; Potency, µM (top dose mostly 76.6 µM), for the others: at the top dose activation (PINK1 increase), usual class: activators; actives 0.2% (n = 410,000); active = well fitted activation curve with a large enough effect; inconclusive = small, poorly fitted or top-dose-only effect; inactive = flat fitted curve, though single readings scatter; cell line not stated here;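 note: potency is the fitted concentration of half-maximal effect; % of control where 0% means no effect; nearly all actives have a fitted effect of over 65% in size; a mitochondrial uncoupler was the plate control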
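Fluorescence from anti-PINK1 antibody, together with nuclear and cell stains, was scanned on a laser-scanning cytometer. Before staining, stable-line cells were incubated 24 hours with compounds at 5 concentrations; primary antibody 12 h at 10 degrees C.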
gsp antag: antagonists of gsp mutant (McCune-Albright syndrome) | actives 0.4% (n = 340,000) | Potency, µM (titrated, usually from 76.9 µM), for the others: at the top dose activity change, negative = inhibition, hits mostly inhibitors | AID 624288 | gsp-mutant cells, cAMP HTRF, 30 min; control for the full effect not named in the record; active = falling curve of any shape with a large fitted effect; inconclusive = falling curve, mostly with a smaller effect; inactive = flat or rising curve; cell line not stated here;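 note: intracellular cAMP measured with PDE inhibitor Ro 20-1724 present during compound exposure; potency is the fitted concentration of half-maximal effect; % is set by controls: 0 for no effect and ±100 for the full control effect; nearly all actives have a fitted effect of over 65% in size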
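HTRF cAMP read-out (cAMP-d2 plus anti-cAMP antibody-K in lysis buffer, 30 min RT). Before lysis, cells are exposed to compounds with […] for 30 min at 37C in DPBS containing Ca/Mg, BSA and Tween 20.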
Sfp inh: blocks B. subtilis Sfp PPTase activity; Biochemical Sfp PPTase activity, qHTS; Potency, µM, inactives show max response, negative = inhibition, actives largely listed as inhibitors; actives 3.5% (n = 310,000); AID 1490; active = well fitted inhibition curve with a large enough effect; inconclusive = small, poorly fitted or top-dose-only effect, or another doubt; inactive = no such curve, though single readings can be large or run the other way;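 note: the enzyme is Sfp with the accession as filed and its product quenches rhodamine fluorescence; potency is the fitted concentration of half-maximal effect; 0% = enzyme reaction without inhibitor and -100% = no enzyme wells; top concentration of the series not given in the record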
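Buffer: 50 mM Hepes-Na pH 7.6, 10 mM MgCl2, 0.01% Nonidet P-40, 0.01% BSA. Enzyme 15 nM, pre-exposed to compound 15 min; substrates then added and fluorescence change tracked over 30 min.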
The depositor's hits bear a star; ? = inconclusive; . = not tested or not shown; [ ] = dose if it differs, or a comment.

SMILES	D2 ag	Menin MLL FP FL	ClpP mod	gsp ag	PINK1 expr mod	gsp antag	Sfp inh
C=CCn1c(SCC(=O)NC2CCCCC2)nnc1C(C)NC(=O)c1cccs1 (stereo unspecified)	-0.9	4.5	-0.1%	4.1%	27.3%[38.3 µM]	-1.3%	9.7%
O=C(c1ccc(F)cc1)N1CCC(C(=O)N2CCN(S(=O)(=O)c3ccccc3Br)CC2)CC1	3.5	.	.	-1.0%[15.4 µM]	3.6%	-5.8%	.
Cc1ccc(NC(=O)CN(C)CC(=O)Nc2cccc(F)c2)cc1S(=O)(=O)N1CCCCCC1	0.0	-2.6	1.9%	-50.1%[inhibitor]	?	?	-19.8%
CCC(C(=O)OCC(=O)c1ccc2c(c1)NC(=O)CO2)c1ccccc1 (stereo unspecified)	1.6	1.7	.	-26.0%	2.3%	-8.9%	-1.7%
Oc1ccc(N2CCN(C(c3cccs3)c3nnnn3CCc3ccccc3)CC2)cc1 (stereo unspecified)	13.7	0.0	-2.8%	-42.5%[inhibitor]	-1.9%	-24.6%	50.1µM*
Cc1ccc(O)c(N)c1	8.5	.	-3.8%	.	0.0%	-27.2%	.
COc1ccc(CCNC(=S)Nc2cc(C)ccc2C)cc1	-1.7	2.3	-3.4%	12.6%	4.1%	3.4%	4.4%
Cc1cc(C)nc(N2CCCC(C(=O)Nc3ccc(F)cc3)C2)n1 (stereo unspecified)	-3.8	-0.1	.	-3.0%	12.1%	1.3%	6.3%
COc1cc(C(=O)NCC(=O)OCc2ccc(F)cc2)cc(OC)c1OC	-2.5	.	-3.5%	22.1%	0.3%	0.5%	.
O=C(c1cccnc1)N1CCc2ccccc21	1.3	12.1	-1.8%	-14.9%	-3.3%[38.3 µM]	8.6%	23.2%
O=C(NCCC1CCCCN1S(=O)(=O)c1ccccc1)C(=O)NCc1ccco1 (stereo unspecified)	-1.2	.	.	-30.5%[15.4 µM]	-0.8%	6.1%	.
COC(=O)c1sc(N2C(=O)C(=O)/C(=C(/O)c3ccccc3)C2c2ccco2)nc1C (stereo unspecified)	-1.1	2.2	.	0.1%[15.4 µM]	-0.5%	?	9.4%
CN(CC(=O)Nc1cccc(F)c1)C(=O)c1cccc(S(=O)(=O)N2CC3(C)CC2CC(C)(C)C3)c1 (stereo unspecified)	-2.7	.	-18.1%	0.8%[15.4 µM]	9.2%	-21.0%	.
COc1ccc(NC(=O)c2cc3ccccc3o/c2=N\NS(=O)(=O)c2ccc(C)cc2)cc1	-0.4	3.1	-0.6%	2.5%	2.5%	3.2%	20.7%
COc1cccc(OC)c1C(=O)NC(=O)Oc1c(F)cccc1F	0.0	.	-1.6%	-4.4%	0.7%	12.3%	-5.2%
Cc1c(C(=O)N2CCCCCC2)c(S(=O)(=O)NCc2ccccc2Cl)c(C)n1C	-2.7	-8.1	-0.7%	-11.5%	-0.9%	-0.2%	8.3%
C#CCOCCOCCOCCNc1nc(N2CCOCC2)nc(N2CCN(C(=O)Cn3cc(CC(C)O)nn3)CC2)n1 (stereo unspecified)	-3.1	1.5	-2.0%	-10.1%	0.8%	2.9%	23.9%
Cc1ccc(CCNC(=O)CNC(=O)c2cccs2)cc1	-4.7	-1.1	.	7.2%[15.4 µM]	0.6%	20.1%	14.6%
CCCc1cnc(Nc2nc(C(N)Cc3ccc(C(F)(F)F)cc3)cs2)nc1 (stereo unspecified)	3.2	.	0.0%	.	-0.1%	.	.
c1ccc(-c2csc(NC3=NCCCCC3)n2)cc1	-0.9	1.8	.	6.9%[15.4 µM]	4.0%	9.8%	0.1%
OC(c1nnc(-c2ccccc2)o1)c1cccs1 (stereo unspecified)	-1.8	0.4	-0.8%	?	-0.3%	6.3%	19.2%
O=C(CCSc1ccccc1)Nc1ncccn1	-0.4	0.0	-1.5%	7.6%	4.4%[38.3 µM]	4.3%	2.5%
CCOC(=O)CNC(=O)c1sc(NC(=O)/C=C/c2ccccc2)nc1C	-0.3	0.5	-18.0%	2.4%	4.8%	-15.3%	-6.9%
CC(C)CN(C(=O)C1CCC1)c1c(N)n(Cc2ccccc2)c(=O)[nH]c1=O	-2.2	.	-4.1%	3.9%	-1.4%	9.0%	.
COC(=O)c1ccccc1NC(=O)C1CC(c2ccccc2O)=NO1 (stereo unspecified)	-2.5	1.1	-4.0%	?	?	1.4%	-12.6%
CCOc1cc(/C=C2\C(=O)N(c3ccc(C(N)=O)cc3)N=C2C)ccc1OC(=O)c1cccs1	-4.3	4.0	-0.9%	21.3%	3.7%	1.8%	56.2µM*
C[C@]12c3[nH]c4ccccc4c3CCN1C(=O)C(CC(=O)NCCc1ccccn1)C[C@@H]2C(=O)N1CCOCC1 (stereo partly specified)	-0.7	.	0.7%	.	1.8%	11.0%	.
CC(Sc1ccccc1)C(=O)N(CCC#N)Cc1cccnc1 (stereo unspecified)	-0.8	-0.2	.	-2.1%[15.4 µM]	0.3%	10.6%	21.3%
COC(=O)[C@]1(Cc2ccccc2)N[C@H](CN(C)C(=O)c2ccccc2)[C@@H]2C(=O)N(Cc3ccccc3)C(=O)[C@@H]21	-0.1	.	1.1%	.	-0.4%	-8.1%	.
COCCn1c(=O)c(-c2cn(C)c3ccccc23)nc2cnc(Oc3cccc(Cl)c3)nc21	.	-0.1	.	.	1.9%	.	9.4%
COc1ccc(NS(=O)(=O)c2cccc3nsnc23)cc1OC	2.7	0.8	-0.3%	-13.8%	-1.2%[38.3 µM]	-6.8%	9.0%
CCOC(=O)C1(CCCc2ccccc2)CCN(C(=O)CCc2cnccn2)CC1	-2.4	-0.2	.	-31.3%[inhibitor]	0.7%	-1.4%	-9.5%
COc1ccc(N2C(=O)CC(N3CCN(C4CCc5ccccc5C4)CC3)C2=O)cc1 (stereo unspecified)	-1.2	1.1	1.9%	-4.3%	-1.5%	1.5%	-21.0%
CCCCNc1c(-c2ccc(-c3ccc(C(C)=O)cc3)c(OC)c2)nc2cnccn12	?	.	-25.0%	?	?	?	.
COc1cc(NC(=O)CCc2nnc3ccc(N4CCOCC4)nn23)cc(OC)c1OC	-0.1	-1.4	-1.7%	24.1%	-0.2%	9.9%	10.9%
CC(OC(=O)C1=NN(c2ccccc2)C(=O)CC1)C(=O)NC1CCCCC1C (stereo unspecified)	12.8	.	-1.5%	4.7%	-0.1%	3.7%	.
CCN(Cc1ccc(OC)c(F)c1)C(=O)C1CCCO1 (stereo unspecified)	0.2	1.1	.	1.6%[15.4 µM]	0.9%	6.0%	8.2%
COc1cccc(C(c2sc3nc(C)nn3c2O)N2CCN(c3ccccc3F)CC2)c1 (stereo unspecified)	-1.4	4.7	1.7%	-30.4%	0.7%	-2.9%	23.5%
CCc1noc(C)c1C(=O)N1CCN(S(=O)(=O)c2cc(C)ccc2C)CC1	-4.1	-4.8	10.5%	-35.1%[inhibitor]	-0.4%	9.2%	7.8%
CN1CCN(c2ncnc3ccc(-c4ccc(C(=O)N(C)C)cc4)cc23)CC1	.	-1.6	.	.	0.6%	.	11.0%
COc1ccc(C2=NOC(C(=O)Nc3cccnc3)C2)cc1 (stereo unspecified)	-1.9	3.5	-1.8%	5.6%	-3.4%	-2.8%	12.3%
CCOC(=O)/C(=N\Nc1ccccc1Cl)N1CC(C)OC(C)C1 (stereo unspecified)	-0.9	0.1	.	26.1%	?	-13.2%	-19.6%
O=C(NC1CC1)C1=C[C@@H](c2ccc3c(c2)OCO3)C[C@@H](OCCCCO)O1	-0.5	-3.0	-4.0%	.	0.8%	-0.8%	17.3%
CC(=O)Nc1ccc(NC(=O)C(C)OC(=O)[C@@H]2CCCN2C(=O)c2cccs2)cc1 (stereo partly specified)	-1.5	.	-0.3%	-3.5%[15.4 µM]	3.1%	2.1%	.
CCOC(=O)C1CCN(C(=O)c2ccccc2NS(=O)(=O)c2cc(C)ccc2C)CC1	-3.4	-0.9	0.6%	-0.5%	2.0%	6.6%	15.7%
CC1CCN(CC(=O)Nc2cccc(Cl)c2)CC1	-5.1	0.1	-1.0%	23.8%	1.6%	-14.2%	13.2%
O=C(CN1CCc2ccccc21)Nc1ccc2c(c1)OCCCO2	-3.6	.	1.7%	-6.8%	1.1%	3.3%	.
Cc1ccc2nc(-c3cccc(NC(=O)c4ccc5c(c4)OCCO5)c3)oc2c1	-2.5	0.7	-0.7%	-8.5%	7.6%	?	-2.0%
COC(=O)CCC(=O)OC1(C)C(=O)C2=CN(Cc3ccc(OC)cc3)C(c3ccc(OC)cc3)=CC2=C(Br)C1=O (stereo unspecified)	?	6.4[11.7 µM]	2.6%	7.0%	-0.5%	-15.9%	5.3%
Cc1cccc(-c2ccc(C=Nc3c(C)n(C)n(-c4ccccc4)c3=O)o2)c1	-2.8	0.4	-3.9%	0.7%	2.8%	?	-22.0%

(cont.)
SMILES	D2 ag	Menin MLL FP FL	ClpP mod	gsp ag	PINK1 expr mod	gsp antag	Sfp inh
CC(C)(C)N=C1NN=C(c2ccc(S(=O)(=O)N3CCCCC3)cc2)CS1	-16.9	.	.	24.8%[15.4 µM]	15.1%	-1.4%	.
Cn1c(=O)c2c(O)c(C=Nc3ccc(F)cc3)c(=O)n(C)c2n(C)c1=O	-0.6	-1.5	.	?	-1.0%	11.2%	7.1%
O=C(O)CC1C(=O)NCCN1C/C=C/c1ccccc1 (stereo unspecified)	6.2	2.8	1.7%	-0.7%	1.1%	9.8%	8.2%
COC(=O)c1c(NC(=O)CCCC(=O)O)sc(C)c1C	-1.2	5.1	-9.3%	?	3.9%	-2.1%	19.0%
CCC(C(=O)NC1CCCCC1)n1nc(C)c2c(C)n(-c3ccccc3)nc2c1=O (stereo unspecified)	1.6	.	-2.3%	-71.6%[inhibitor]	-1.5%	-12.4%	5.4%
Cc1ccc(C2NC(=O)NC(O)(C(F)(F)F)C2C(=O)c2ccccc2)o1 (stereo unspecified)	-1.7	?	-3.2%	?	-4.5%[38.3 µM]	-6.8%	-1.5%
COc1ccc(S(=O)(=O)N2CCN(C(=O)c3ccc4ccccc4n3)CC2)cc1	2.7	.	-2.2%	-11.7%	1.3%	3.6%	.
